Rce1 inhib – blocks yeast Ras-converting enzyme | actives 0.27% (n = 290,000) | yeast membranes, quenched prenylated peptide cleavage fluorescence | AID 2563 | calls only;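 active = fall in fluorescence gain of 50% or more versus controls, with final raw signal at or below 3038400; inconclusive = same 50% fall but final raw signal above 3038400; inactive = fall in fluorescence gain under 50%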;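 note: plate controls were neutral control wells for no effect and wells lacking membranes for full effect; tested at 10 µM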
Target sequence (Q03530 whole entry, looked up): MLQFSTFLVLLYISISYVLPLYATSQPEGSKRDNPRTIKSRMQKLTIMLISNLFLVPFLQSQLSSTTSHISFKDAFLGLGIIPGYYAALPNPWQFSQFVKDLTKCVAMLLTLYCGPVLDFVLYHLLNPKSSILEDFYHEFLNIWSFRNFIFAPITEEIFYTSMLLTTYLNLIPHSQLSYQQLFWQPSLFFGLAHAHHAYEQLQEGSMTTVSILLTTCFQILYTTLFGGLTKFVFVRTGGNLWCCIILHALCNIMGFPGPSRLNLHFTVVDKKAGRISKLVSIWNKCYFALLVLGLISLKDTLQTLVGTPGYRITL
PABP FP inh – PABP-poly(A) binding inhibition; PABP-poly(A) RNA binding, fluorescence polarization; inhibition, % at 35 µM; actives 1% (n = 290,000);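 active = 50% or more with normal probe brightness, or confirmed in later tests; inconclusive = above 50% with abnormal brightness, or retests that disagree; inactive = below 50% or failed in later tests; about a fifth of its hits are not listed in these tables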;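 note: calls also rest on retests at 20 µM and on dose response follow-up; controls were probe without protein and protein plus probe with vehicle; some compounds called inactive have numbers as strong as hits; many hits fall short of the cut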
UUG fidelity – yeast start codon fidelity modulation; S. cerevisiae UUG-firefly luciferase reporter, luminescence/redox ratio; activity score, % at 18.7 µM; actives 0.13% (n = 350,000); AID 602363;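 active = replicate mean at a twofold rise or more, about +100% in these data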;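 note: firefly luciferase made from a UUG start codon reports start codon fidelity; reporter light over untreated wells divided by growth signal over untreated wells; some hits fall short of that in this replicate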
CSC inhib – cancer stem cell inhibition | inhibition, % at 7.5 µM | actives 1.1% (n = 300,000) | cancer stem cell-like cells viability, luminescence;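 active = mean at 75% or more and at least half the replicates too; inconclusive = mean and replicates disagree; tested in HMLE shEcad cells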;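 note: 0% = median of negative and 100% = median of positive control wells; the first replicate is given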
HIV Env fusion – HIV envelope-mediated fusion inhibition. HeLa-JRFL Env/CEM21 cell fusion, luciferase. inhibition, % at 12.3 µM. actives 1.1% (n = 360,000). AID 651610;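 active = mean replicate inhibition score of at least 50 and every replicate individually at or above 50; inconclusive = only one of the two criteria met; inactive = mean below 50 and not all replicates reaching 50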;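 note: 0% = plate neutral controls and 100% = maraviroc near 300 nM; one replicate is shown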
eIF4H inh – inhibitors of RNA binding by human eIF4H; inhibition, % at 35 µM; eIF4H fluorescence polarization binding assay; actives 0.94% (n = 290,000); Q15056;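 active = 50% or more with normal probe brightness, or confirmed in later tests; inconclusive = above 50% with abnormal brightness, or retests that disagree; inactive = below 50% or failed in later tests; about a fifth of its hits are not listed in these tables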;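 note: calls also rest on retests at 20 µM and on dose response follow-up; 0% = protein and probe with vehicle and 100% = probe without protein; strong numbers were not always called active; many hits fall short of the cut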
MT1-MMP act inh – inhibitors of human MT1-MMP activation; actives 0.061% (n = 360,000); AID 651647; HT1080 RFP-PRO-GFP cells, GFP/RFP ratio fluorescence, overnight; percent of plate control window, DMSO zero; GFP/RFP ratio change, % at 20 µM;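 active = GFP/RFP ratio change of at least 30% with cell ATP level not reduced by more than half and red fluorescence within 50% of control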; note: strong numbers were not always called active
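Assay system – RFP-PRO-GFP reporter HT1080 cells · Compound dosing – single dose of 20 µM compound, 1% DMSO final · Incubation – overnight compound exposure at 37 °C · Measure – GFP/RFP fluorescence ratio · Benchmarks – DMSO wells and RFP-L50D-GFP cells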
eIF4H inh retest – recorded beside eIF4H inh, whose call it bears; inhibition, %; compound at 20 µM; confirmation average;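 mean of two retest wells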
PABP FP inh retest – also measured in PABP FP inh; calls as there; inhibition, %; compound at 20 µM; confirmation repeats;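 mean of two retest wells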
MT1-MMP act inh RFP – further read-out of MT1-MMP act inh, marked with its call; RFP signal change, %; measured here: RFP expression control read;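 0 = vehicle wells; hits needed this value within 50% of zero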
Numbers without * were called inactive; i = inactive; ? = inconclusive; . = not tested or not shown.

SMILES	Rce1 inhib	PABP FP inh	UUG fidelity	CSC inhib	HIV Env fusion	eIF4H inh	MT1-MMP act inh	MT1-MMP act inh RFP	others
CC1=C(C(=O)N2CCN(C(=O)c3ccco3)CC2)C2(CCC(C)CC2)OC1=O (stereo unspecified)	i	3	-13	.	-16	7	3	5
COCCNC(=O)COC(=O)c1cc(-c2ccc(OC)cc2)nc2ccccc12	i	7	.	.	7	-3	-1	-3
O=C(CCC(=O)c1ccccc1)NCc1cccc(C(F)(F)F)c1	.	.	-16	.	6	.	2	2
CC1CCN(c2nc(-c3ccccc3)cc(C(F)(F)F)n2)CC1	i	-7	-13	39	-4	-3	2	5
COc1ccc2c(C)cc(SCC(=O)N3CCOCC3)nc2c1	i	124*	-9	0	19	124*	-128	-3	eIF4H inh retest=79*;PABP FP inh retest=74*
COc1ccc(CCNC(=O)C23CCC(C)(C(=O)C2Br)C3(C)C)cc1OC (stereo unspecified)	i	23	.	5	20	-1	0	1
Cc1cc(NC(=O)c2ccccc2F)cc(C)c1OCC(=O)N1CCOCC1	i	-7	-1	-1	.	-12	0	5
NNC(=O)c1cc(-c2cccs2)nc2ccccc12	.	3	.	1	1	10	-2	-2
COc1cc2c(cc1OC)-c1cc(Nc3ccc(C(=O)O)cc3)nc(=O)n1CC2	i	23	-12	-1	31	39	0	1
O=C(NCCCN1CCCCC1)c1ccc(CS(=O)c2ccc(F)cc2)o1 (stereo unspecified)	i	14	-11	-6	2	9	0	3
Cc1cc(C)cc(OCCNC(=O)c2cc(S(=O)(=O)N3CCOCC3)ccc2F)c1	.	-4	9	25	-4	-4	-4	-5
Cc1ccccc1NC(=O)Cn1nnc(C(=O)NCc2ccco2)c1N	i	-2	.	24	-46	-1	1	-5
Cn1ncc(Br)c1N1C(=O)CCC1=O	i	4	-28	-43	-3	-6	2	2
CCOC(=O)c1nsnc1NCCSC(=N)N	i	-5	.	-3	8	2	0	1
CCN(CC)S(=O)(=O)c1cc([N+](=O)[O-])ccc1N1CCC(C(N)=O)CC1	i	-10	-7	-3	-4	-2	0	2

Overlap with the part before: 4 compounds, followed by the next part.
SMILES	Rce1 inhib	PABP FP inh	UUG fidelity	CSC inhib	HIV Env fusion	eIF4H inh	MT1-MMP act inh	MT1-MMP act inh RFP	others
Cc1ccccc1NC(=O)Cn1nnc(C(=O)NCc2ccco2)c1N	i	-2	.	24	-46	-1	1	-5
Cn1ncc(Br)c1N1C(=O)CCC1=O	i	4	-28	-43	-3	-6	2	2
CCOC(=O)c1nsnc1NCCSC(=N)N	i	-5	.	-3	8	2	0	1
CCN(CC)S(=O)(=O)c1cc([N+](=O)[O-])ccc1N1CCC(C(N)=O)CC1	i	-10	-7	-3	-4	-2	0	2
CC1=C(C(=O)OCc2ccccc2)C(c2ccsc2)NC(=O)N1C (stereo unspecified)	.	4	.	1	9	-2	1	-6
Cc1cc([N+](=O)[O-])nn1CC(=O)NCc1ccc(Cl)cc1	.	-3	-10	-4	-8	-7	1	0
COc1ccc(NC(=O)COC(=O)CCc2ccc(S(=O)(=O)N3CCOCC3)cc2)cc1Cl	.	.	-2	10	-20	.	.	.
COc1ccc(CNC(=S)N/N=C(/C)c2ccccc2)cc1	i	-10	-26	37	-95	-5	2	-7
CS(=O)(=O)c1ccc2nc(NC(=O)C3CC3)sc2c1	i	.	-14	0	-9	.	-6	-5
CCC(C)NC(=O)CS(=O)(=O)Cc1nc(-c2cccc(OC)c2)oc1C (stereo unspecified)	i	7	-11	-12	0	-13	-8	-1
CN(Cc1ccccc1)C(=O)C(C(=O)c1ccc(F)cc1)n1cc(Cl)ccc1=O (stereo unspecified)	i	-4	.	-10	-3	-6	-3	2
Cn1c(=O)n(Cc2ccccc2)c(=O)c2c1nc1n2CCCN1C1CCCCC1	i	.	-5	24	1	.	9	-12
Clc1ccc(Nc2ncnc3c2cnn3-c2ccccc2)cc1	i	10	-16	32	-44	-2	-6	-13
O=C(O)C1Cc2ccccc2CN1C(=O)COc1ccc(Br)cc1 (stereo unspecified)	i	8	.	.	-1	61	-1	-2	eIF4H inh retest=-8;PABP FP inh retest=9
NC(CO)(CO)COCc1ccccc1	i	130*	-17	16	6	68	1	5	eIF4H inh retest=25;PABP FP inh retest=58*
O=C(CSc1ccc(-c2cccnc2)nn1)N1CCCCC1	i	2	-24	-12	0	6	1	6
CCOC(=O)C1=C(C)N=c2s/c(=C\c3ccc(OCC(=O)O)cc3)c(=O)n2C1c1ccc(Cl)cc1 (stereo unspecified)	i	25	17	.	3	25	-6	-1
CCCC1(CCC)NC(=O)N(CC(=O)Nc2ccc3c(c2)OCCO3)C1=O	.	.	-11	-1	-26	.	1	4
CCOC(=O)C1CCN(C(=S)Nc2cc(C)ccc2C)CC1	i	4	.	-18	18	-5	0	0
Cc1ccc2c(Cl)c(Cc3ccccc3)c(=S)[nH]c2n1	.	.	6	.	23	.	6	-6
C=CCNC(=O)c1cc2c(=O)n3ccccc3nc2s1	i	6	-25	3	-36	55	1	1	eIF4H inh retest=-8;PABP FP inh retest=4
Cn1c(SCC(=O)NCc2cccs2)nnc1-c1ccc(S(=O)(=O)N2CCCC2)cc1	i	-4	-11	.	-136	-6	6	-1
CCN(CC)CCNC(=O)CCCNC(=O)Cn1cnc2sc(C)c(C)c2c1=O	i	-4	-7	6	15	1	4	4
CCC(C)C(NC(=O)OCc1ccccc1)C(=O)NCC(c1ccccc1)N(C)C (stereo unspecified)	i	7	-2	1	-2	2	0	1
O=C(CCCNS(=O)(=O)c1cccc2nsnc12)NCCN1CCN(c2ccccc2F)CC1	i	7	.	1	0	4	1	-3
C=CCOc1ccccc1CN1CCC(C(=O)Nc2cccc(-c3ccn[nH]3)c2)CC1	i	-17	2	1	5	-9	4	-2
CC1CC(C)CN(C(=O)COC(=O)c2cc3ccccc3oc2=O)C1 (stereo unspecified)	.	.	-12	18	-20	.	4	-2
CCC(C)NC(=O)c1ccc(NS(=O)(=O)c2ccc3[nH]c(=O)[nH]c3c2)cc1 (stereo unspecified)	i	8	-1	6	1	41	-2	3
COC(=O)c1ccc(-c2nc3ccccc3[nH]2)cc1	i	1	-55	18	-102	-3	9	-4
O=[N+]([O-])c1cccc(CSc2ncnc3ccccc23)c1	i	-9	.	10	-1	-5	-7	-4
O=C(COC(=O)c1cccnc1)Nc1cccc(Cl)c1	i	1	-26	-8	-10	0	4	1
Cc1ccc(C2=CSC3=NCCN23)cc1	i	.	-10	8	-2	.	0	4
O=C(NC(=S)NCc1ccccc1)c1ccccc1	i	-7	.	-2	-24	2	0	1
COC(=O)c1n[nH]n(-c2cc(Cl)cc(Cl)c2)c1=O	i	0	-17	-17	6	-1	1	3
COCCn1c(-c2ccc(-c3ccc([N+](=O)[O-])cc3Br)o2)nc2c1c(=O)[nH]c(=O)n2CC(C)C	i	18	9	30	8	25	-21	-4
N#C/C(=C\Nc1ccccc1SC(F)(F)F)c1nc(-c2ccccc2)cs1	i	-12	.	-5	6	-5	-2	3
O=C(CSc1nnc(CCCO)n1-c1ccccc1)NCCc1ccccc1	i	-5	-6	-9	-4	-15	-1	-5
CC(NS(=O)(=O)c1ccccc1)C(c1cccs1)N1CCOCC1 (stereo unspecified)	i	2	-17	-4	12	12	1	6
Nc1ccccc1S(=O)(=O)NCCCCc1ccccc1	i	16	-7	-3	-8	7	-8	-2
CCOc1ccccc1N(CC(=O)Nc1ccccc1C(=O)O)S(C)(=O)=O	i	1	-2	-7	1	4	1	4
CCOc1c(C)cnc2c1c(=O)n(Cc1ccccc1F)c(=O)n2C	i	6	0	3	-6	-9	2	-2
CC(=O)OC(C)(C)/C=C/C(=O)[C@](C)(O)C1[C@H](O)C[C@@]2(C)C3CC=C4C(C=C(O[C@@H]5O[C@H](CO)[C@@H](O)[C@H](O)[C@H]5O)C(=O)C4(C)C)[C@]3(C)C(=O)C[C@]12C (stereo partly specified)	.	.	4	10	-16	.	3	8
Cc1ccc2c(Cl)c(C(=O)NCC3CCCO3)sc2c1 (stereo unspecified)	i	-14	-16	7	-105	-1	1	-1
COc1ccc(COC(=O)c2cc([N+](=O)[O-])ccc2N2CCOCC2)cc1F	i	.	-4	60	.	.	6	-12
O=C(/C=C/c1ccc(O)cc1)OCc1occc(=O)c1O[C@@H]1OC(CO)[C@@H](O)[C@H](O)[C@@H]1O (stereo partly specified)	i	1	-17	3	10	-3	-2	-1
OCCNCc1c(OCc2ccc(Cl)cc2)ccc2ccccc12	i	-1	-14	20	-5	-6	1	-1
COc1ccc(C(c2c(NC(=O)c3ccccc3)sc(C)c2C)N2CCN(CCO)CC2)cc1 (stereo unspecified)	i	-3	.	15	-1	-1	2	7
COc1ccc(Cc2c(-c3cccc(Br)c3)nc3c(C)cc(Br)cn23)c(C)c1	.	.	-12	.	-11	.	-1	0
Cc1cc(SCC#N)n2nc(C)c(-c3ccc(Cl)cc3)c2n1	i	2	-25	10	-39	-8	2	0
CNS(=O)(=O)c1cccc(C(=O)OCc2cc(Cl)cc3c2OCOC3)c1	i	-4	-5	-9	-21	2	5	2
CC(C)(C)c1cc(CCC(=O)NN)cc(C(C)(C)C)c1O	i	7	.	-17	4	-11	-3	0
CCN(CC)S(=O)(=O)c1ccc(N2CCCC2)c(NC(=O)C2CCCCC2)c1	i	9	.	-3	15	0	2	6
Cc1ccc(NC(=O)NC2CCCCCCC2)c(C)c1	i	-6	-8	-1	.	-16	-3	0
CCn1ncc(NC(=S)Nc2ccc(OC)c(OC)c2)c1C(N)=O	i	7	.	-11	0	15	1	2
COc1ccc(CC2S/C(=C(\C#N)C(=O)NCc3ccco3)N(c3ccc(C)cc3)C2=O)cc1 (stereo unspecified)	i	-5	-15	9	.	0	-12	0
CCC(C)NC(=O)Cn1c(=O)n(-c2ccccc2)c(=O)c2ccc(C(=O)NCc3ccco3)cc21 (stereo unspecified)	.	-8	-3	-8	-79	-6	3	3
O=C1OCCC1Sc1nnc(-c2cccnc2)n1-c1ccccc1F (stereo unspecified)	i	7	.	3	8	3	2	5
O=S(=O)(NCc1ccccc1)c1ccccc1NCc1ccc(Cl)cc1	.	.	-6	.	-7	.	2	2
CCOC(=O)N1CCN(C(=O)c2ccc(Cl)c(S(=O)(=O)N3CCCC3)c2)CC1	i	4	0	-5	7	-9	0	-2
CCOc1ccc(OCC)c(NC(=O)CN(C)S(=O)(=O)c2cnc[nH]2)c1	i	1	-17	-9	.	-3	-1	2
Cc1cccc(-c2nnc(C(C)Nc3cccc(C(=O)NC4CC4)c3)o2)c1 (stereo unspecified)	.	.	-10	.	-254	.	-5	-7
O=c1c2c3c(sc2nc2n1CCC2)CCCC3	i	-12	4	-12	-10	6	1	3
O=C(Nc1ccc(CN2CCOCC2)cc1)c1ccc(N2CCCC2)c([N+](=O)[O-])c1	i	-13	.	-9	4	-6	4	1
CSc1nc2nc3c(c(=O)n2[nH]1)CN(Cc1ccccc1)CC3	i	-6	-11	6	.	-9	4	0
CCS(=O)(=O)N1CCC(C(=O)Nc2cccc(F)c2)CC1	i	-7	-18	-24	-99	-6	-1	1
CCN(CC)S(=O)(=O)c1ccc(N2CCOCC2)c(NC(=O)Cc2ccccc2F)c1	i	-16	.	71	?	-2	-12	-6
COc1cc(S(=O)(=O)NCC2CCCO2)ccc1Br (stereo unspecified)	i	5	-1	-14	-40	6	0	3

Screening results deposited in PubChem by several laboratories.
